Compound activity (PubChem)
MT1-MMP act inh = blocks activation of human MT1-MMP | P50281 | GFP/RFP ratio change, % at 20 µM | AID 651647 | HT1080 RFP-PRO-GFP cells, GFP/RFP ratio fluorescence, overnight; percent of plate control window, DMSO zero | 0.061% of 360,000 active;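 active = GFP/RFP ratio change of at least 30% with cell ATP level not reduced by more than half and red fluorescence within 50% of control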; also: strong numbers were not always called active
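Assay system: HT1080 RFP-PRO-GFP cells. Benchmarks: DMSO vehicle wells and RFP-L50D-GFP reporter cell wells. Times: overnight cell settling, then overnight compound exposure, 37 °C, 5% CO2. Compound: 20 µM single dose, 1% DMSO. Read-out basis: GFP/RFP fluorescence ratio.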
PABP polyA inh = PABP-poly(A) binding inhibition | 1% of 290,000 active | P11940 | inhibition, % at 35 µM | AID 2014 | PABP-poly(A) RNA binding, fluorescence polarization;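 active = 50% or more with normal probe brightness, or confirmed in later tests; inconclusive = above 50% with abnormal brightness, or retests that disagree; inactive = below 50% or failed in later tests; about a fifth of its hits are not listed in these tables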;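 also: calls also rest on retests at 20 µM and on dose response follow-up; controls were probe without protein and protein plus probe with vehicle; some compounds called inactive have numbers as strong as hits; many hits fall short of the cut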
UUG fidelity = yeast start codon fidelity modulation | S. cerevisiae UUG-firefly luciferase reporter, luminescence/redox ratio | activity score, % at 18.7 µM | 0.13% of 350,000 active;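 active = replicate mean at a twofold rise or more, about +100% in these data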;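 also: firefly luciferase made from a UUG start codon reports start codon fidelity; reporter light over untreated wells divided by growth signal over untreated wells; some hits fall short of that in this replicate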
eIF4H FP inh = inhibitors of RNA binding by human eIF4H; eIF4H fluorescence polarization binding assay; inhibition, % at 35 µM; 0.94% of 290,000 active;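 active = 50% or more with normal probe brightness, or confirmed in later tests; inconclusive = above 50% with abnormal brightness, or retests that disagree; inactive = below 50% or failed in later tests; about a fifth of its hits are not listed in these tables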;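 also: calls also rest on retests at 20 µM and on dose response follow-up; 0% = protein and probe with vehicle and 100% = probe without protein; strong numbers were not always called active; many hits fall short of the cut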
CSC inhib = blocks cancer stem cells; cancer stem cell-like cells viability, luminescence; inhibition, % at 7.5 µM; 1.1% of 300,000 active;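 active = mean at 75% or more and at least half the replicates too; inconclusive = mean and replicates disagree; tested in HMLE shEcad cells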;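 also: 0% = median of negative and 100% = median of positive control wells; the first replicate is given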
HIV Env fusion = inhibitors of HIV Env-mediated cell fusion; HeLa-JRFL Env/CEM21 cell fusion, luciferase; inhibition, % at 12.3 µM; 1.1% of 360,000 active; AID 651610;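 active = mean replicate inhibition score of at least 50 and every replicate individually at or above 50; inconclusive = only one of the two criteria met; inactive = mean below 50 and not all replicates reaching 50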;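 also: 0% = plate neutral controls and 100% = maraviroc near 300 nM; one replicate is shown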
Rce1 inhib = inhibitors of yeast Ras-converting enzyme | calls only | 0.27% of 290,000 active | Q03530 | AID 2563 | yeast membranes, quenched prenylated peptide cleavage fluorescence;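 active = fall in fluorescence gain of 50% or more versus controls, with final raw signal at or below 3038400; inconclusive = same 50% fall but final raw signal above 3038400; inactive = fall in fluorescence gain under 50%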;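 also: plate controls were neutral control wells for no effect and wells lacking membranes for full effect; tested at 10 µM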
Target sequence (Q03530 whole entry, looked up): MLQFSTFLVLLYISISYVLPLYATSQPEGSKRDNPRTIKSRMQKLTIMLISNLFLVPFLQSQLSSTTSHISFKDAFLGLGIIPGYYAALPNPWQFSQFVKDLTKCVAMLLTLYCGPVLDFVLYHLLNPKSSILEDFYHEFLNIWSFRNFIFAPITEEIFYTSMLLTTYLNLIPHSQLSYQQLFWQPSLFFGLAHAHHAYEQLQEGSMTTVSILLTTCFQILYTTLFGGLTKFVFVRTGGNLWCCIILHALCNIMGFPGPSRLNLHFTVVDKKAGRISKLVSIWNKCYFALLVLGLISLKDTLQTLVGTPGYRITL
eIF4H FP inh retest = second read-out of eIF4H FP inh, no call of its own (marks repeat the call); inhibition, %; compound at 20 µM; confirmation average;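 mean of two retest wells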
PABP polyA inh retest = also measured in PABP polyA inh; calls as there; inhibition, %; compound at 20 µM; confirmation repeats;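 mean of two retest wells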
MT1-MMP act inh RFP = recorded beside MT1-MMP act inh, whose call it bears; RFP signal change, %; measured here: RFP expression control read;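 0 = vehicle wells; hits needed this value within 50% of zero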
* hit, by the source's call; i = inactive; ? = inconclusive; · = not tested or not shown. An excerpt; rates above refer to the full screens.

SMILES | MT1-MMP act inh | MT1-MMP act inh RFP | PABP polyA inh | UUG fidelity | eIF4H FP inh | CSC inhib | HIV Env fusion | Rce1 inhib | others
COc1ccc(/C=N/NC(=O)c2ccncc2)cc1Cn1nc([N+](=O)[O-])c(Br)c1C | 0 | -3 | -4 | · | -6 | 0 | -2 | i
Cc1ccc(C(=O)Nc2ccccc2C(=O)N2CCCCCC2)cc1 | -2 | -2 | 14 | -26 | 37 | -3 | 14 | i
O=C(Nc1cccc([N+](=O)[O-])c1)N1CCCCCC1 | 2 | 2 | -10 | -10 | -2 | 5 | 4 | i
COc1ccc(C2c3ccc4ccccc4c3Oc3ncn(CCCO)c(=N)c32)cc1 (configuration not stated) | 6 | -3 | 2 | -12 | 0 | 6 | -47 | i
O=c1ccc2cc(S(=O)(=O)NCc3ccccc3)ccc2[nH]1 | 4 | 2 | 6 | -10 | -3 | · | 2 | i
CC(C)C(NS(=O)(=O)c1ccccc1)C(=O)OCc1cc([N+](=O)[O-])cc2c1OCOC2 (configuration not stated) | -4 | -5 | -1 | · | 6 | -16 | 11 | i
COC(=O)C1CC(O)CN1S(=O)(=O)c1cccs1 (configuration not stated) | 7 | 2 | -13 | · | -3 | 1 | 3 | i
NC(=O)CSc1nc2ccccc2c(=O)n1Cc1ccccc1 | -2 | 3 | -5 | 5 | -7 | -14 | 5 | i
Cc1ccc(-n2nc3c(c2NC(=O)c2c(F)cccc2Cl)CS(=O)(=O)C3)cc1C | 1 | 2 | -2 | -9 | 13 | 0 | -9 | i
O=C(CCCC(=O)Nc1cccnc1)Nc1cccnc1 | -2 | 2 | 34 | -11 | -4 | -12 | · | i
Cc1cc(OCC(=O)OCC(=O)Nc2cc(S(=O)(=O)N3CCOCC3)ccc2Cl)ccc1Cl | 1 | -4 | · | -19 | · | -4 | -2 | ·
COC(=O)NNC(=O)C(c1ccccc1)c1ccccc1 | -1 | -2 | · | · | · | -11 | -4 | i
COc1ccc(-c2noc(-c3cccc(OC)c3OC)n2)cc1OC | 3 | 1 | -14 | -17 | -12 | -4 | -102 | i
COC(CNS(=O)(=O)c1ccc(S(=O)(=O)N2CCCC2)cc1)OC | 1 | 6 | 7 | -14 | -10 | 23 | -1 | i
CC(C)CN1CCC(=O)N([C@H](CSc2ccccc2)Cc2ccccc2)CC1 | -1 | -4 | -2 | -5 | -11 | 26 | -66 | i
COC(=O)c1cc(C)nc(N)c1C#N | 3 | 7 | -15 | -23 | -3 | 1 | · | i
CN(c1ccccc1)c1nc(N)c([N+](=O)[O-])c(Nc2cccc(F)c2)n1 | 7 | 4 | 15 | -12 | -4 | 5 | 7 | i
COc1cccc(N=c2oc3c(C)ncc(CO)c3cc2C(N)=O)c1 | 3 | 3 | -5 | -8 | -11 | 4 | -22 | i
Cc1c(Cl)cccc1NC(=O)NN1CCN(C)CC1 | 4 | 1 | -10 | -8 | -3 | -7 | · | i
Cc1ccc(N2C(=O)C3C(C2=O)C(C(=O)c2ccc(Cl)cc2)N2CCCC32)cc1 (configuration not stated) | 0 | 7 | 106 | -12 | 91 | 0 | · | i | eIF4H FP inh retest=29;PABP polyA inh retest=37
C[C@@]1([C@@H](NC(=O)c2cccs2)c2ccc(-c3ccccc3)cc2)C[C@H]1C1CCCCC1 | -18 | -9 | 5 | -42 | -11 | 2 | -39 | i
O=C(CSc1ncnc2scc(-c3ccccc3)c12)Nc1ccc(C(=O)O)cc1 | -1 | 3 | 16 | -11 | 9 | -15 | 2 | i
COc1ccccc1NC(=O)CSc1nnnn1-c1ccc(C)cc1 | 1 | 2 | -3 | · | 4 | -5 | -4 | i
CC(=O)NS(=O)(=O)c1cccnc1Nc1ccc(Cl)cc1 | · | · | 6 | -2 | 5 | -14 | · | i
COc1ccc(-c2nc3n(n2)C(=O)CC(c2ccco2)S3)cc1 (configuration not stated) | -5 | 3 | 1 | -4 | 13 | 0 | · | i

Further entries follow.
SMILES | MT1-MMP act inh | MT1-MMP act inh RFP | PABP polyA inh | UUG fidelity | eIF4H FP inh | CSC inhib | HIV Env fusion | Rce1 inhib | others
O=C1C2C3C=CC(C3)C2C(=O)N1c1n[nH]c(-c2cccnc2)n1 (configuration not stated) | 3 | 0 | -12 | · | -8 | -5 | · | i
Cc1ccc2c(c1)[C@@H](O)C[C@@H](C)N2N=O | -15 | -4 | -6 | · | -2 | -1 | · | i
Cc1ccc(CNC(=O)c2cc(-c3ccccc3)nn2CC2CC(c3cccnc3)=NO2)cc1 (configuration not stated) | 2 | -1 | · | -19 | · | 7 | -10 | i
COc1ccc(C(=O)N(C)CCOc2ccc(Cl)cc2)cc1S(=O)(=O)N1CCCC1 | -1 | -4 | · | -10 | · | · | 9 | ·
Cc1cc(C=O)c(C)c2c1[nH]c1ccccc12 | -8 | -4 | · | -2 | · | · | 26 | ·
CCc1ccc(-c2cc3c(=O)n(CC(=O)N4CCCCCC4)nc(C)n3n2)cc1 | -1 | -1 | -4 | 8 | 3 | -13 | 12 | i
C=CC[n+]1c(C)csc1Nc1ccc(C(=O)O)cc1 | -3 | 6 | 12 | · | 4 | 9 | 9 | i
CCN(C(=O)COC(=O)/C=C/c1cccc([N+](=O)[O-])c1)c1ccccc1 | 4 | -5 | -16 | · | -9 | -7 | -2 | i
COc1ccc(C(=O)O/N=C2\C(=O)N(C)c3ccccc32)cc1 | -4 | 6 | · | -19 | · | -3 | -9 | ·
O=c1ccc(Oc2nc(N3CCCCC3)nc(N3CCCCC3)n2)n[nH]1 | -3 | -3 | -8 | · | -8 | -14 | 0 | i
CCN(CC(=O)NC1CCS(=O)(=O)C1)C(=O)/C=C/c1cccs1 (configuration not stated) | -2 | 0 | -4 | · | 4 | -13 | 1 | i
COc1cc(/C=N/n2nnnc2N)cc(OC)c1OC | 3 | 1 | 0 | -5 | 7 | 1 | -13 | i
O=C(O)CCC(=O)Nc1ccc(N2CCOCC2)cc1 | -3 | 2 | -3 | -16 | -1 | -16 | · | i
COc1cccc(COC(=O)Nc2ccccc2F)c1 | -5 | 3 | -4 | -15 | -6 | 14 | -75 | i
O=c1ccc(Cl)nn1-c1ccccc1 | 2 | -1 | · | -11 | · | -4 | 2 | i
CCOCCOC(=O)C1=C(C)NC(=O)NC1c1cc2c(cc1Br)OCO2 (configuration not stated) | -1 | 2 | -3 | -4 | 4 | 0 | -9 | i
COc1cccc(CNS(=O)(=O)c2c(C(=O)N3CCCCC3)c(C)n(C)c2C)c1 | 4 | 4 | 0 | -1 | -4 | -6 | 8 | i
CCC(=O)N(Cc1cc(=O)[nH]c2ccccc12)c1ccccc1C | -5 | -6 | 3 | 12 | -1 | 2 | -9 | i
CC(=O)N/N=C(\C)c1cccc(C(F)(F)F)c1 | -4 | 1 | -1 | · | -3 | -11 | 5 | i
CCCN(Cc1nnc(-c2ccccc2Cl)o1)C(=O)c1cccc(S(=O)(=O)N2CCOCC2)c1 | 0 | 0 | -10 | -6 | -10 | -6 | 17 | i
CCC(O)C1CCN(C(=O)c2cc(COc3ccc(F)cc3F)on2)CC1 (configuration not stated) | 2 | 1 | 3 | 17 | -5 | · | -10 | i
COc1ccc(/C=N/NC(=O)c2ccc(NC(=O)c3cccc([N+](=O)[O-])c3)cc2)c(OC)c1 | 1 | 2 | 0 | · | 20 | 24 | 26 | i
O=C(Nc1ccc(CN2CCOCC2)cc1)c1ccccc1F | 5 | 4 | -4 | -14 | -6 | -2 | -14 | i
O=C(Nc1ccc(S(=O)(=O)NC2CCCCC2)cc1)c1ccco1 | 0 | -2 | 13 | -28 | 40 | 19 | · | i
Cc1c(Cc2ccccc2)c(=O)[nH]c(=O)n1C | 3 | 6 | · | -15 | · | · | 17 | ·

Carrying on:
SMILES | MT1-MMP act inh | MT1-MMP act inh RFP | PABP polyA inh | UUG fidelity | eIF4H FP inh | CSC inhib | HIV Env fusion | Rce1 inhib | others
CN(C)CCn1c(N)nc2ccccc21 | · | · | 8 | -8 | 8 | -15 | 4 | i
CCN1CCN(C(=O)C2CCCN(S(=O)(=O)c3cccc4nsnc34)C2)CC1 (configuration not stated) | 2 | 4 | 0 | -25 | -9 | -7 | -11 | i
COc1cccc(NC(=O)CSc2nnc(Cc3cccs3)n2-c2ccc(C)cc2)c1 | -6 | -6 | 1 | -14 | -2 | -7 | 84* | i
Cc1occc1-c1nnc(SCC(=O)c2c[nH]c3ccccc23)n1C | -3 | 0 | 0 | -14 | 5 | 0 | · | ·
COc1ccc(C(C)NC(=O)CC23CC4CC(CC(C4)C2)C3)cc1 (configuration not stated) | -1 | -2 | -3 | -11 | 1 | 10 | 36 | i
COc1ccccc1NC(=O)CN1CCN(C(=O)C2CCCO2)CC1 (configuration not stated) | 0 | -1 | -11 | -3 | -25 | -9 | · | i
CCC1(C)Cc2c(sc3nc(SC)nc(N)c23)CO1 (configuration not stated) | 2 | 1 | 4 | -4 | -1 | -9 | · | i
Cc1cccc(C(=O)NCCc2nnc(SCC(=O)Nc3nc(C)cs3)n2C)c1 | 4 | 2 | 1 | -23 | -6 | 0 | -38 | i
CC(=O)c1ccc(S(=O)(=O)NCCc2csc(-c3cccnc3)n2)cc1 | -5 | -5 | 0 | 6 | 6 | 0 | 7 | i
O=C(NCC(c1cccs1)N1CCOCC1)c1ccc(Cl)nc1 (configuration not stated) | -1 | -4 | · | -12 | · | · | -2 | ·
O=C(CCS(=O)(=O)c1ccc(Cl)cc1)OCC(=O)N1CCCCC1 | -4 | -1 | -2 | -7 | 0 | -4 | · | i
COc1ccc(-n2nc(C(=O)NCC(=O)N3CCCC3)c3ccccc3c2=O)cc1Cl | -2 | 1 | 0 | -7 | -9 | -9 | -36 | i
CC1CN(C(=O)COC(=O)c2c(Cl)cccc2Cl)CC(C)O1 (configuration not stated) | -4 | -1 | 7 | · | 3 | 11 | 6 | i
O=C(/C=C/c1cc2ccccc2o1)c1ccccc1O | -5 | -3 | 5 | -12 | 0 | ? | -23 | i
CC(C)CCNC(=O)Cn1c2c(c(-c3ccccc3Cl)cc1=O)CCC2 | 4 | -5 | 13 | -15 | -10 | -7 | -25 | i
O=C1CC(c2ccco2)CC2=C1C=Nc1ccccc1N2 (configuration not stated) | -1 | 3 | 8 | -9 | 14 | -4 | -2 | i
Cc1cc(/C=C(\C#N)C(=O)NCc2cccs2)c(C)n1-c1ccc([N+](=O)[O-])cc1 | 0 | -1 | 3 | -14 | 14 | -22 | · | i
COc1ccc(C2=NO[C@@H]3C(=O)N(c4cccc(C)c4C)C(=O)[C@H]23)cc1OC | 2 | 0 | 2 | -6 | -2 | -19 | -53 | i
CC(=O)c1cccc(NC(=S)NC(=O)CC(C)(C)C)c1 | -9 | -7 | -1 | -21 | -6 | 2 | -78 | i
Cc1cc(N=Cc2c(O)n(-c3cccc(Cl)c3)c(=O)c3ccccc23)no1 | -5 | -3 | -13 | -8 | -2 | 5 | 4 | i
COc1ccc(NC(=O)CSc2ccccc2)c([N+](=O)[O-])c1 | 0 | -1 | -8 | · | -6 | -3 | -37 | i

A run of entries taken from the entries so far:
SMILES | MT1-MMP act inh | MT1-MMP act inh RFP | PABP polyA inh | UUG fidelity | eIF4H FP inh | CSC inhib | HIV Env fusion | Rce1 inhib | others
COc1ccc(/C=N/NC(=O)c2ccncc2)cc1Cn1nc([N+](=O)[O-])c(Br)c1C | 0 | -3 | -4 | · | -6 | 0 | -2 | i
Cc1ccc(C(=O)Nc2ccccc2C(=O)N2CCCCCC2)cc1 | -2 | -2 | 14 | -26 | 37 | -3 | 14 | i
O=C(Nc1cccc([N+](=O)[O-])c1)N1CCCCCC1 | 2 | 2 | -10 | -10 | -2 | 5 | 4 | i
